Source: PubChem BioAssay (several laboratories)
Bfl-1 A1 inh = caspase 3/7 activation in MEF A1-2A-BIM cells, primary screen, A1 inhibitor project, cell-based, luminescence, HTS | 330,000 tested, 0.066% active | Caspase-Glo 3/7 luminescence, 3 h; percent of clofoctol response, vehicle zero | caspase activation, % (concentration not given with the values) | AID 2462, 2010;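 active means over half of replicate activation scores above 10%, or exactly half above 10 with the replicate mean above 10; inconclusive means replicate mean below 10 yet half the replicates above 10; inactive means over half of replicates below 10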;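 further: wells of about 30 µL received 50 nL stock; many hits fall short of the cut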
LANA-H2B inh = blockers of LANA interaction with H2A/H2B – biochemical, FP readout, HTS, primary screen. Protein LANA1 (Human herpesvirus 8 type P (isolate GK18)), Q9QR71. 320,000 tested, 0.6% active. inhibition, % (test concentration not listed). cell-free LANA-H2A/H2B peptide, fluorescence polarization. AID 2629, 2010; in the data active means inhibition mostly above about 10%, no sharp cut-off; inactive means mostly below about 6.7%;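 further: stock transfer was 7.5 nL into about 10 µL; 0% = median of vehicle wells and 100% = median of positive control wells; one replicate is shown; the record names a cut of 25% in any replicate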
Beta2AR agonist = beta2AR agonists driving receptor internalization, primary screen, cell-based, FAP fluorogen, flow cytometry; 340,000 tested, 0.43% active; Beta-2 adrenergic receptor (Homo sapiens), P07550; response, % (concentration not given with the values); Am2.2-beta2AR cells; reference of the scale not given here;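 active means response above a set limit, near 3 SD of response in nonfluorescent compounds, cut at about 42% in these data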;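 further: stock transfer was 100 nL into about 11 µL; a reference agonist was the positive control; negative values mostly stem from fluorescent compounds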
Target sequence (P07550 whole entry, looked up): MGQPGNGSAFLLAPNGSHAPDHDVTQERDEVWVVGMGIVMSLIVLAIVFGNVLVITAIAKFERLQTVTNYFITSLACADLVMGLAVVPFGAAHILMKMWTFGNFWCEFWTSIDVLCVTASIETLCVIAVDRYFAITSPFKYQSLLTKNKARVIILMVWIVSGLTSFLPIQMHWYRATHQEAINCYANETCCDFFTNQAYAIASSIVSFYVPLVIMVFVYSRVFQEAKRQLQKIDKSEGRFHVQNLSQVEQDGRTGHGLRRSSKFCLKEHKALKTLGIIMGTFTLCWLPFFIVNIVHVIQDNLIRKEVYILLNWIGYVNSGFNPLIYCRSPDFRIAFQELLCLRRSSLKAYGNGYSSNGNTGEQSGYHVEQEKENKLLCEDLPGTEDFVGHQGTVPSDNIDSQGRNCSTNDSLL
Calb FLC = C. albicans growth inhibition with fluconazole, primary screen, CaCi-2 strain, Alamar Blue fluorescence | C. albicans CaCi-2 (fluconazole-resistant clinical isolate) + fluconazole, 48 h | growth inhibition, % (no concentration beside the values) | 300,000 tested, 0.57% active | AID 1979, 2009;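 active means most replicates above 75%; inconclusive means exactly half above 75%; inactive means most below 75%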;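 further: all wells also contain fluconazole at 8 µg/ml as a sub-toxic cotreatment; 0% = median of DMSO wells and 100% = median of geldanamycin control wells; wells of about 8 µL received 7.5 nL stock; the first replicate is given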
UCH37 inh = inhibitors of human UCH37 deubiquitinase, primary screen, biochemical, Ub-AMC cleavage, fluorescence. Ubiquitin carboxyl-terminal hydrolase isozyme L5 (Homo sapiens), Q9Y5K5. purified proteasome/UCH37. inhibition, % (concentration not given with the values). 330,000 tested, 0.33% active. AID 588478, 2011;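 active means mean of two replicates above 20%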;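 further: 0% = compound-free wells with enzyme and 100% = wells lacking proteasome; stock transfer was 100 nL into about 20 µL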
Target sequence (Q9Y5K5 whole entry, looked up): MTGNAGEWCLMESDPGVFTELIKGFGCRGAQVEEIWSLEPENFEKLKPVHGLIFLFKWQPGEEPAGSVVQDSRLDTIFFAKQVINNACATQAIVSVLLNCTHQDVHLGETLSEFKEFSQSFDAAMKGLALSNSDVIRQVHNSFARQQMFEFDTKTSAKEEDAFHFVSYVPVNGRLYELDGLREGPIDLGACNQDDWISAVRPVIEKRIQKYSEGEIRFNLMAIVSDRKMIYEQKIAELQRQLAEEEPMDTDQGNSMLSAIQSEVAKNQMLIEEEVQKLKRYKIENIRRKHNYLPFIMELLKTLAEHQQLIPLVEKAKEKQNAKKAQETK
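Signal – fluorescence, ex 355 nm, em 460 nm · System – Proteasome-bound UCH37 · Input – 0.15 nM proteasome as dispensed · Timing – 30 min preincubation with enzyme, 25 min cleavage at room temperature · Read-out basis – percent inhibition of cleavage signal versus uninhibited and no-proteasome wells · Medium – Tris-HCl pH 7.4 with ATP-MgCl2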
Beta cell apopt = inhibitors of cytokine-induced beta cell apoptosis, primary screen, luminescence; INS-1E cytokine-induced death, ATP luminescence, 48 h; percent of positive-control rescue, neutral wells zero; 300,000 tested, 0.8% active; protection from apoptosis, % (concentration not given with the values);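 active means all replicates at 75% or more, or half of them and the mean; inconclusive means half reach 75% but not the mean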;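 further: 0% = cytokine-treated negative control wells and 100% = positive control rescue; higher means more ATP so stronger rescue from cytokine killing; wells of about 40 µL received 100 nL stock; the first replicate is given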
RanGTP-Imp inh = inhibitors of RanGTP-importin-beta interaction, primary screen, biochemical, FRET, CFP-Ran, YFP-importin-beta, homogeneous; Ran GTPase (GTP-bound) - importin-beta complex; cell-free CFP-Ran/YFP-importin-beta FRET ratio; inhibition, % (no concentration beside the values); 300,000 tested, 1.1% active; AID 2216, 2009;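 active means most replicates above 15%; inconclusive means exactly half above 15%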;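 further: 0% = DMSO wells and 100% = Ran loaded with GDP instead of GTP; wells of about 40 µL received 100 nL stock; the first replicate is given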
T cruzi inh = inhibitors of intracellular T. cruzi growth, primary screen, luminescence, NIH3T3 host cells | inhibition, % (test concentration not listed) | 300,000 tested, 1.4% active | T. cruzi beta-gal in NIH3T3, 90 h;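 active means mean inhibition across valid replicates above about 55%, limit read from the data; inconclusive means mean below that limit but half or more replicates reach it; inactive means mean below it, under half of replicates reach it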;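 further: signal also drops with host cell toxicity which is not excluded here; 0% = plate median of DMSO wells and 100% = zero luminescence signal; higher percent means less beta-gal luminescence so fewer parasites; stock transfer was 50 nL into about 50 µL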
Starred values were filed as active, the others as inactive; ? = inconclusive; · = not tested or not shown. Outcome played no part in choosing rows. Share with any hit: about 4.3%.

structure	T cruzi inh	RanGTP-Imp inh	Beta2AR agonist	LANA-H2B inh	Beta cell apopt	Bfl-1 A1 inh	UCH37 inh	Calb FLC
CCOC(=O)N1CCN(CC(=O)Nc2ccc(F)cc2F)CC1	-2	2.8	0	-4.9	0	-0.5	4.3	-15
Cc1ccc(C(=O)CC2(O)C(=O)N(Cc3ccccc3Cl)c3ccccc32)o1 (stereo not given)	19	9.0	2	-3.3	-5	0.9	-3.6	·
CC(=O)N1[C@@H]2CC3C4CC=C5C[C@@H](O)CC[C@]5(C)C4CC[C@]3(C)[C@@]21C(C)=O (stereo not given in full)	17	-1.2	5	-4.3	-3	0.4	1.0	-2
O=C(N/N=C/C(Br)=C/c1ccccc1)c1ccccc1[N+](=O)[O-]	-31	0.5	2	0.8	-10	-0.2	·	2
CCOC(=O)c1sc(=NC(=O)c2ccc(S(=O)(=O)N3CC(C)OC(C)C3)cc2)n(C)c1C (stereo not given)	5	2.9	2	-2.2	1	0.2	-68	2
CC1(C)CC(=O)C=C(c2cccc3c2Oc2ccccc2S3)C1	·	·	-4	-5.8	1	-1.4	3.2	·
CCOC(=O)Cn1c(C)nc2ccccc21	-16	?	4	-1.7	-8	0.3	2.2	-2
Cc1ccc(/C=N/n2c(-c3ccco3)n[nH]c2=S)cc1	-14	1.1	7	3.3	·	0.8	·	18
Cc1c(C)n(CC(O)CN2C(=O)c3ccccc3S2(=O)=O)c2ccccc12 (stereo not given)	1	3.1	7	5.3	-3	-0.5	1.7	29
CCc1ccc(C(C(=O)NCc2ccccc2)N(C(=O)c2csnn2)C2CC2)cc1 (stereo not given)	24	-1.5	-1	3.9	-6	0.4	0.6	22
S=C(Nc1ccc(Cl)cc1)NC1CCN(Cc2ccccc2)CC1	32	-2.2	15	5.1	-1	-0.6	2.9	-30
NS(=O)(=O)c1ccc(NC(=O)COC(=O)c2ccc(Cl)nc2)cc1	-4	0.8	-3	0.0	2	0.0	1.8	6
Cc1ccc(-c2nnn(CC(=O)N(CC(=O)NC3CCCC3)c3ccc(F)cc3)n2)o1	-2	-0.1	4	-4.1	2	-0.2	0.9	-18
COc1ccc(C2=NN(C(=O)/C=C/c3ccccc3)C(c3ccccc3)C2)c(OC(C)=O)c1 (stereo not given)	11	6.3	-2	-1.8	22	0.4	-0.9	-7
O=C(CSc1nc(-c2cccs2)cc(C(F)(F)F)n1)NCCCn1ccnc1	5	-6.5	-14	-6.5	-1	-0.1	1.2	-13
C=CCNC(=S)NNC(=O)c1cccc(Br)c1	-8	1.2	1	3.0	-4	-0.3	1.3	-10
O=C(Cc1cccs1)Nc1nnc(SCc2ccc(Br)cc2)s1	-9	-0.8	-9	0.9	-11	0.4	3.2	?
CCc1ccccc1NC1=CC(=O)CC(C)(C)C1	-5	-2.8	34	3.1	-1	0.3	1.5	-16
COc1cc(/C=C(\C#N)c2ccccn2)ccc1OCc1ccccc1	14	4.0	0	-3.4	-2	-2.7	-83	17
CCN(CC)CCNC(=O)/C(=N\O)c1ccccn1	-11	6.7	-1	-0.2	-7	1.2	·	-5
c1coc(-c2nnc(SCc3nc4ccccc4[nH]3)o2)c1	-8	5.9	-24	1.5	-1	-1.5	-0.1	4
C=CCN(C(=O)c1cc(C)cc(C)c1)C1(C(=O)Nc2ccccc2)CCN(C(C)C)CC1	46	·	4	4.9	-3	-0.4	-2.3	0
O=C(CC(C(=O)O)c1cccc(Br)c1)c1ccc(Cl)cc1 (stereo not given)	-12	-0.8	-8	0.5	-3	0.3	1.6	13
CC(=O)Nc1cccc(C(=O)/C=C/c2ccco2)c1	-12	1.5	-4	7.4	-20	0.2	0.3	-7
O=C(COc1ccc(Cl)cc1)Nc1ccccc1Cl	1	3.8	9	0.0	-2	-0.5	2.9	17
COc1cc(C(F)(F)F)c(C(=O)N(C)c2ccc(Cl)cc2)cn1	-6	2.3	1	0.1	-2	0.1	1.8	-4
CCOc1ccccc1NC(=S)/C(=C(\[O-])c1ccc2c(c1)OCCO2)[n+]1ccc(CC)cc1	53	5.3	9	0.7	2	-0.4	8.7	1
COc1cccc(C(c2c(N)[nH]c(=S)[nH]c2=O)c2c(N)[nH]c(=S)[nH]c2=O)c1	-15	0.9	-11	1.8	-2	0.5	2.5	3
Nn1c(SCc2cn3ccsc3n2)nnc1-c1ccncc1	-6	-3.7	36	4.9	-3	0.6	2.9	-5
COc1ccc2sc(-c3ccc(SC)cc3)c(C#CC(C)(C)O)c2c1	·	·	30	1.7	-7	-1.3	·	·
CCCCSc1nc2c(c(C(F)(F)F)c1C#N)CCC2	17	0.6	14	0.8	3	0.4	-13	-8
O=C(O)CCN1C(=O)/C(=C/c2ccc(-c3nc4ccccc4s3)o2)SC1=S	-1	-7.0	41	-1.7	1	-0.4	17	?
Cc1cccc(NC(=O)c2ccc(NCC3CCCO3)c([N+](=O)[O-])c2)c1 (stereo not given)	28	4.8	-20	-2.5	-1	-0.2	0.4	-4
CCN1C(=O)/C(=C2/C=Cc3ccccc3N2C)OC1=S	3	-3.0	-16	1.7	-2	1.3	5.9	-1
CC(=O)C1=C(C)N(Cc2ccccc2)C(=O)N[C@H]1CCc1ccccc1	-9	1.9	-3	-6.0	3	0.0	-1.6	19
CN(C)/C=C1\C(=O)Nc2ccccc21	-30	-2.9	-4	4.1	6	0.1	13	3
COc1ccc(OCCOCC(O)CN2CCOCC2)cc1 (stereo not given)	4	-0.2	-2	-7.2	1	-0.1	-3.2	?
CCCc1nc([N+](=O)[O-])c(S(=O)(=O)c2ccccc2)n1CC(C)C	-84	-0.5	-9	-3.2	-28	1.0	4.5	-2
CC1CN(c2cc(-c3ccccc3)c3ccccc3n2)CC(C)O1 (stereo not given)	26	0.5	-4	1.8	2	0.5	-40	0
CC(C)(Oc1ccc(Cl)cc1)C(=O)NCc1n[nH]c(=O)c2ccccc12	-3	?	-6	-1.8	2	-0.4	3.3	-5
CCN(CC)c1ccc(/C=N\NC(N)=O)cc1	-14	-4.7	-3	0.4	0	1.8	·	1
Cc1nc(C)c(C(=O)Nc2ccc(C)c(F)c2)o1	-5	3.4	1	-16	-6	-3.8	2.8	11
COc1ccccc1NS(=O)(=O)/C=C/c1ccccc1	13	0.2	-3	·	-7	-0.2	-0.1	1
COC(=O)CCSc1cc([N+](=O)[O-])cc2c1c(C1OCCO1)nn2-c1ccccc1	26	1.4	-13	-2.6	-1	1.0	1.8	6
N#CC1CN(C(c2ccccc2)c2ccccc2)C1	-18	4.6	6	-1.2	-7	-0.8	1.7	-1
CSc1nc(N(C)C)nc(N(C#N)CCOC(C)=O)n1	6	-0.2	10	1.4	2	0.8	2.9	-1
O=C(CS(=O)(=O)c1ccc(F)cc1)Nc1nnc(-c2cccs2)o1	-10	-1.9	1	4.4	-2	0.9	2.9	-3
CCN(CC)c1nc(N2CCN(C)CC2)nc2ccccc12	22	-0.9	-7	-1.1	·	0.6	4.5	7
C(=C\c1ccncc1)/c1ccccc1	49	3.2	3	-1.7	-6	-3.8	3.2	0
CCOCc1nnc(NC(=O)COC)s1	3	-1.4	-2	-1.7	-3	0.2	3.1	?
CCOc1ccc(S(=O)(=O)n2nc(C)cc2C)cc1	-10	-2.5	-3	-0.9	1	-0.1	1.2	-2
CCCCNC(=O)CCC(=O)Nc1ccc2nc(N3CCCCC3)cc(C)c2c1	0	3.6	-14	-2.3	2	0.4	-196	5
COc1cccc(CN2C(=NC(=O)C3CC3)SC3CS(=O)(=O)CC32)c1 (stereo not given)	4	7.4	8	-7.4	-4	-0.2	1.2	-4
CCSc1nc(C)nc2sc(C)c(C)c12	0	-1.2	5	-6.2	-6	-0.4	-1.6	1
CCOC(=O)c1cc(CC)sc1NC(=O)c1cc(OCC)c(OCC)c(OCC)c1	24	2.3	9	3.0	11	-0.2	-273	7
Cc1oc(-c2cccc(C(F)(F)F)c2)nc1CN1CCN(c2ccccn2)CC1	4	0.1	-6	-1.1	-2	-0.3	3.6	?

(next part)
structure	T cruzi inh	RanGTP-Imp inh	Beta2AR agonist	LANA-H2B inh	Beta cell apopt	Bfl-1 A1 inh	UCH37 inh	Calb FLC
CCOC(=O)C(=O)Nc1ccc(S(=O)(=O)N2CCOCC2)cc1OC	4	1.4	-1	-3.1	-6	-0.7	-1.7	-2
CCc1ccc(NC(=O)CSc2nnc(Cc3cccn3C)n2-c2ccc(OC)cc2)cc1	0	-3.8	-3	-9.3	-15	0.2	-0.9	-9
Cc1nnnn1/C(=C\c1ccccc1)C(=O)OCC(=O)Nc1cccc(S(=O)(=O)N(C)C)c1	·	·	15	-1.2	-23	2.3	1.9	·
C[C@@H]1O[C@@H](O[C@H]2[C@H](O[C@H]3C[C@]4(C)C(C[C@@H](O)C5C([C@]6(C)CC[C@@H](C(C)(C)O)O6)CC[C@]54C)[C@@]4(C)CC[C@H](O)C(C)(C)C34)O[C@H](CO)[C@@H](O)[C@@H]2O)[C@H](O)[C@H](O)[C@H]1O (stereo not given in full)	·	·	-2	2.0	5	1.0	-1.3	·
